High-throughput results from PubChem.
Vaccinia inh: blocks a specific stage of Vaccinia orthopoxvirus infection; Vaccinia-infected cells, mCherry/Venus stage reporter fluorescence; active compounds read low; some inactives read as strong as hits; AID 1053133; 89,000 tested, 0.01% active; activity change (mCherry), % (test concentration not listed);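 active = mCherry past -33% and 40 or more points under the early reporter, replicates agreeing; inconclusive = past -33% without that gap or agreement; tested in A549 cells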;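 also: scaled between vehicle wells and reference inhibitor wells; 23 nL library stock went into each well; one replicate is shown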
Vaccinia inh Venus: also measured in Vaccinia inh; calls as there; activity change (Venus), %; measured here: Venus reporter, other viral stage;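 negative = less Venus signal; first of two replicates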
An asterisk follows results filed as active; ? = inconclusive; . = no result given. These rows are one share of the data; rates above refer to the full screens.

nr | mol | Vaccinia inh | Vaccinia inh Venus
1 | COc1ccc(S(=O)(=O)N(C)C[C@@H]2Oc3c(NC(=O)c4ccncc4)cccc3C(=O)N([C@@H](C)CO)C[C@@H]2C)cc1 | 11.2 | 5.3
2 | C[C@H](CO)N1C[C@H](C)[C@H](CN(C)Cc2ccncc2)Oc2ccc(N(C)C)cc2C1=O | 19.1 | 6.8
3 | Cc1noc(C)c1NC(=O)NCC[C@@H]1CC[C@@H](NC(=O)Nc2cccc(Cl)c2)[C@H](CO)O1 | 0.8 | 1.2
4 | O=C(Cc1cccnc1)N1CC(=O)N2[C@H](CO)[C@@H](c3ccc(C4=CCCCC4)cc3)[C@@H]2C1 | -34.3 | -22.8
5 | COCC#Cc1cnc2c(c1)C(=O)N([C@H](C)CO)C[C@H](C)[C@@H](CN(C)C(=O)CN1CCOCC1)O2 | 26.9 | 18.8
6 | C[C@@H]1CN([C@@H](C)CO)C(=O)c2cc(C3=CCCC3)cnc2O[C@H]1CN(C)C(=O)C1CCC1 | -2.3 | 3.5
7 | C[C@@H]1CN([C@H](C)CO)C(=O)c2cccc(NC(=O)Nc3ccc(F)cc3)c2O[C@H]1CN(C)C(=O)Nc1ccc(C(F)(F)F)cc1 | -32.8 | -25.0
8 | CCC(=O)N(C)C[C@H]1Oc2ncc(/C=C/c3ccccc3)cc2C(=O)N([C@@H](C)CO)C[C@H]1C | 9.0 | -2.5
9 | CN1CCN(C(=O)C2=C[C@@H](c3ccc4c(c3)OCO4)C[C@@H](OCc3ccc(CO)cc3)O2)CC1 | 12.5 | 6.9
10 | C[C@@H]1CN([C@@H](C)CO)S(=O)(=O)c2ccc(C#CC3CC3)cc2O[C@H]1CN(C)Cc1cccnc1 | -16.8 | -15.6
11 | C[C@@H]1CN([C@H](C)CO)C(=O)CCCn2cc(nn2)CO[C@@H]1CN(C)Cc1ccc(Oc2ccccc2)cc1 | -21.7 | -21.7
12 | O=C(CCN1CCCCC1)N[C@H]1CC[C@H](CC(=O)N2CCC(Cc3ccccc3)CC2)O[C@H]1CO | -9.4 | -5.4
13 | C[C@@H]1CN([C@@H](C)CO)C(=O)c2cc(NS(=O)(=O)c3ccc(F)cc3)ccc2O[C@@H](C)CCCCO[C@H]1CN(C)Cc1ccc(C(=O)O)cc1 | 32.1 | 9.4
14 | O=C(c1cccnc1)N1CC[C@H]2[C@H](CO)Nc3ccc(-c4ccc(F)cc4)cc3[C@H]21 | 10.6 | 8.5
15 | C[C@@H]1CCCCO[C@@H](CN(C)S(=O)(=O)c2ccc(F)cc2)[C@@H](C)CN([C@H](C)CO)C(=O)c2cc(NC(=O)Nc3cccc4ccccc34)ccc2O1 | 20.1 | 18.6
16 | CCCC#Cc1ccc([C@@H]2[C@@H](CO)N3CCCCN(Cc4cccnc4)C[C@@H]23)cc1 | -21.2 | -27.0
17 | O=C([C@H]1[C@H](CO)[C@H]2Cn3c(ccc(-c4ccccc4F)c3=O)[C@@H]1N2C(=O)C1CCC1)N1CCCCC1 | 4.9 | 4.9
18 | COc1ccc(-c2ccc([C@@H]3[C@H]4CN(C(=O)c5ccc(F)cc5)CCCCN4[C@H]3CO)cc2)cc1 | -9.0 | -11.5
19 | C[C@@H]1CN([C@@H](C)CO)C(=O)c2cc(NS(=O)(=O)c3cn(C)cn3)ccc2O[C@@H]1CN(C)Cc1ccc2c(c1)OCO2 | 7.4 | -0.6
20 | C[C@@H]1CN([C@@H](C)CO)C(=O)c2cc(C#CCc3ccccc3)cnc2O[C@@H]1CN(C)Cc1cccc(C(=O)O)c1 | 10.4 | 9.6

Six structures out of the list, arranged by heavy-atom count, descending:
nr | mol | Vaccinia inh | Vaccinia inh Venus
19 | C[C@@H]1CN([C@@H](C)CO)C(=O)c2cc(NS(=O)(=O)c3cn(C)cn3)ccc2O[C@@H]1CN(C)Cc1ccc2c(c1)OCO2 | 7.4 | -0.6
20 | C[C@@H]1CN([C@@H](C)CO)C(=O)c2cc(C#CCc3ccccc3)cnc2O[C@@H]1CN(C)Cc1cccc(C(=O)O)c1 | 10.4 | 9.6
11 | C[C@@H]1CN([C@H](C)CO)C(=O)CCCn2cc(nn2)CO[C@@H]1CN(C)Cc1ccc(Oc2ccccc2)cc1 | -21.7 | -21.7
17 | O=C([C@H]1[C@H](CO)[C@H]2Cn3c(ccc(-c4ccccc4F)c3=O)[C@@H]1N2C(=O)C1CCC1)N1CCCCC1 | 4.9 | 4.9
12 | O=C(CCN1CCCCC1)N[C@H]1CC[C@H](CC(=O)N2CCC(Cc3ccccc3)CC2)O[C@H]1CO | -9.4 | -5.4
16 | CCCC#Cc1ccc([C@@H]2[C@@H](CO)N3CCCCN(Cc4cccnc4)C[C@@H]23)cc1 | -21.2 | -27.0

Other records
nr | mol | Vaccinia inh | Vaccinia inh Venus
21 | CCC(=O)Nc1ccc2c(c1)OC[C@@H](C)N(C(=O)c1cccnc1)C[C@H](C)[C@@H](OC)CN(C)C2=O | 5.9 | 9.5
22 | COc1ccc(C(=O)N2C[C@@H]3[C@H](c4ccccc42)[C@H](CO)N3C(=O)c2cccc(F)c2)cc1 | 0.9 | 2.4
23 | Cc1ccc(S(=O)(=O)N(C)C[C@H]2Oc3ncc(-c4ccncc4)cc3C(=O)N([C@@H](C)CO)C[C@@H]2C)cc1 | -3.9 | -9.4
24 | C[C@H]1CN([C@@H](C)CO)C(=O)c2cc(C#CC3CC3)cnc2O[C@@H]1CN(C)C | 6.4 | 2.5
25 | C[C@H](CO)N1C[C@H](C)[C@H](CN(C)C(=O)c2ccccc2)Oc2ncc(-c3ccc(C#N)cc3)cc2C1=O | -7.9 | -10.7
26 | C/C=C/c1cnc2c(c1)C(=O)N([C@H](C)CO)C[C@H](C)[C@H](CN(C)Cc1ccc(F)cc1)O2 | 4.1 | 12.4
27 | C[C@H](CO)N1C[C@H](C)[C@@H](CN(C)S(=O)(=O)c2cn(C)cn2)Oc2ccc(NS(=O)(=O)c3cccs3)cc2CC1=O | 3.3 | 3.3
28 | CCN1[C@@H]2c3ccc(-c4ccccc4)c(=O)n3C[C@@H]2[C@@H](CO)[C@@H]1C(=O)NCC(F)(F)F | -1.6 | -4.1
29 | C[C@H](CO)N1C[C@H](C)[C@@H](CN(C)Cc2ccc(Oc3ccccc3)cc2)Oc2c(NS(=O)(=O)c3ccccc3)cccc2C1=O | 12.5 | 7.2
30 | C[C@@H]1CN([C@H](C)CO)C(=O)Cc2cc(NC(=O)Nc3ccc(F)cc3)ccc2O[C@H]1CN(C)S(C)(=O)=O | 7.1 | 10.8

A different layout for 2 compounds above.
Order of values: Vaccinia inh	Vaccinia inh Venus
24) C[C@H]1CN([C@@H](C)CO)C(=O)c2cc(C#CC3CC3)cnc2O[C@@H]1CN(C)C
  6.4	2.5
29) C[C@H](CO)N1C[C@H](C)[C@@H](CN(C)Cc2ccc(Oc3ccccc3)cc2)Oc2c(NS(=O)(=O)c3ccccc3)cccc2C1=O
  12.5	7.2

Next records follow:
nr	structure	Vaccinia inh	Vaccinia inh Venus
31	O=C(C[C@@H]1CC[C@@H](NC(=O)c2ccncc2)[C@H](CO)O1)Nc1ccccc1	2.7	11.8
32	C[C@H]1CN([C@@H](C)CO)C(=O)c2cc(NC(=O)Nc3ccc(F)cc3)ccc2O[C@H]1CN(C)S(=O)(=O)c1cccs1	-6.2	-2.4
33	C/C=C/c1ccc([C@H]2[C@@H](CO)N(C(=O)NCCC)[C@H]2CNC(=O)C2CCC2)cc1	2.8	3.4
34	CCC(=O)N1CCCCN2[C@H](CO)[C@@H](c3ccc(-c4cccc(C(=O)N(C)C)c4)cc3)[C@@H]2C1	16.5	-4.6
35	COc1ccc2c3c(n(C)c2c1)[C@H](CO)N(C(=O)Nc1ccc(F)cc1)CC31CCN(Cc2ccccn2)CC1	?	.
36	CC(=O)N1CCCCN2[C@@H](CO)[C@H](c3ccc(-c4ccncc4)cc3)[C@@H]2C1	23.4	16.1
37	O=C(C[C@@H]1C=C[C@@H](NS(=O)(=O)c2cccc(F)c2)[C@H](CO)O1)N1CCCCC1	9.1	15.6
38	O=C(Nc1cc(F)ccc1F)N1CC(=O)N2[C@@H](CO)[C@H](c3ccc(/C=C/c4ccccc4)cc3)[C@@H]2C1	?	.
39	CN(C)C(=O)[C@H]1[C@H](CO)[C@H]2Cn3c(ccc(-c4cccnc4)c3=O)[C@H]2N1Cc1ccccc1F	-0.2	2.7
40	Cc1ccc(S(=O)(=O)Nc2ccc3c(c2)C(=O)N([C@@H](C)CO)C[C@@H](C)[C@H](CN(C)S(=O)(=O)c2c(C)noc2C)OCCCC[C@@H](C)O3)cc1	?	.
41	COc1ccc(S(=O)(=O)N(C)C[C@H]2OCCCC[C@@H](C)Oc3ccc(NC(=O)Nc4cccc5ccccc45)cc3C(=O)N([C@@H](C)CO)C[C@H]2C)cc1	12.2	3.2
42	C[C@H]1CN([C@@H](C)CO)C(=O)Cc2cc(NC(=O)c3ccncc3)ccc2O[C@H]1CN(C)S(=O)(=O)c1cn(C)cn1	7.2	7.4
43	Cc1ccc(S(=O)(=O)Nc2ccc3c(c2)C(=O)N([C@H](C)CO)C[C@@H](C)[C@@H](CN(C)S(=O)(=O)c2cn(C)cn2)OCCCC[C@H](C)O3)cc1	6.8	9.8
44	COc1ccc2c3c([nH]c2c1)[C@@H](CO)N(C)CC31CN(C(=O)NC(C)C)C1	9.5	10.2
45	O=C(C1CCCC1)N1CC(=O)N2[C@H](C1)[C@H](c1ccc(Br)cc1)[C@@H]2CO	12.7	10.7
46	O=C(C[C@H]1CC[C@H]2[C@@H](COC[C@@H](O)CN2C(=O)c2cccnc2)O1)NCc1ccc(-c2ccccc2)cc1	13.0	6.4
47	C[C@@H]1CN([C@H](C)CO)C(=O)c2cc(NS(=O)(=O)c3cn(C)cn3)ccc2O[C@@H](C)CCCCO[C@H]1CN(C)C(=O)Nc1ccc(C(F)(F)F)cc1	6.4	3.0
48	Cc1noc(C)c1NC(=O)N(C)C[C@@H]1Oc2c(NC(=O)CCCCCC(=O)Nc3ccccc3N)cccc2C(=O)N([C@@H](C)CO)C[C@H]1C	27.5	10.2
49	O=C(Nc1cc(F)ccc1F)N1CCCCN2[C@@H](CO)[C@@H](c3ccc(-c4ccccc4)cc3)[C@@H]2C1	?	.
50	COc1ccc(S(=O)(=O)N(C)C[C@H]2OCCCC[C@@H](C)Oc3ccc(NC(=O)NC(C)C)cc3C(=O)N([C@H](C)CO)C[C@H]2C)cc1	?	.
51	CCCNC(=O)N1[C@@H]2CN(C(=O)Nc3cccc(Cl)c3)c3ccccc3[C@@H]2[C@@H]1CO	7.5	2.6
52	CN(C)C(=O)C[C@@H]1CC[C@@H](NC(=O)NC2CCCC2)[C@H](CO)O1	0.5	-1.5
53	Cc1ccc(S(=O)(=O)N[C@@H]2CC[C@@H](CCNC(=O)C3CCCCC3)O[C@@H]2CO)cc1	-2.8	-4.1
54	C[C@@H]1CCCCO[C@@H](CN(C)Cc2ccc(C(=O)Nc3ccccc3N)cc2)[C@@H](C)CN([C@H](C)CO)C(=O)c2cc(NC(=O)c3ccccc3)ccc2O1	-3.6	-3.4
55	O=C(C[C@@H]1CC[C@@H](NC(=O)Nc2ccc(C(F)(F)F)cc2)[C@H](CO)O1)NCc1cccc(F)c1	-6.2	-8.2
56	CCCNC(=O)Nc1ccc2c(c1)OC[C@@H](C)N(C(=O)c1ccccc1F)C[C@H](C)[C@H](OC)CN(C)C2=O	5.1	4.5
57	C[C@H](CO)N1C[C@H](C)[C@H](CN(C)S(=O)(=O)c2ccc(F)cc2)Oc2ccc(NC(=O)Cn3cnnn3)cc2CC1=O	4.9	-0.6
58	O=C(C[C@H]1C[C@@H]2c3cc(NC(=O)Nc4ccccc4)ccc3O[C@@H]2[C@H](CO)O1)NCc1ccccn1	25.0	16.4
59	CC(C)NC(=O)N(C)C[C@H]1Oc2ncc(Br)cc2C(=O)N([C@H](C)CO)C[C@@H]1C	15.3	10.5
60	C[C@@H]1CN([C@H](C)CO)C(=O)c2cccc(NC(=O)Nc3cccc4ccccc34)c2O[C@@H]1CN(C)Cc1ccc(Oc2ccccc2)cc1	-15.4	-9.4
61	C[C@@H]1CN([C@H](C)CO)C(=O)Cc2cc(NC(=O)C3CCCCC3)ccc2O[C@H]1CN(C)C(=O)Nc1ccccc1	-35.0	-1.0
62	C[C@@H]1CN([C@H](C)CO)C(=O)c2cc(-c3cccc(F)c3)cnc2O[C@@H]1CN(C)C(=O)Nc1ccccc1F	6.3	6.9
63	O=C(NCC(F)(F)F)[C@H]1[C@H](CO)[C@H]2Cn3c(cccc3=O)[C@H]2N1C(=O)C1CC1	-2.9	4.8
64	C[C@@H]1CN([C@@H](C)CO)C(=O)c2cccc(NS(=O)(=O)c3cccs3)c2O[C@H]1CN(C)Cc1ccncc1	15.8	8.6
65	COc1ccc2c3c(n(C)c2c1)[C@H](CO)N(S(C)(=O)=O)CC31CCN(CC2CCCC2)CC1	-32.1	-22.7
66	C[C@H](CO)N1C[C@H](C)[C@H](CN(C)C(=O)Nc2cccc3ccccc23)Oc2ccc(NS(=O)(=O)c3cn(C)cn3)cc2CC1=O	11.7	14.0
67	C=CCNC(=O)[C@@H]1[C@H]2C(=O)O[C@H](c3ccccc3)[C@H](c3ccccc3)N2[C@H](c2ccc(O)cc2)[C@@]12C(=O)N(C(=O)OCCOC)c1ccc(C#Cc3ccc(OC)cc3)cc12	8.1	8.1
68	COc1ccc(NC(=O)N[C@@H]2C=C[C@@H](CC(=O)NC3CCC3)O[C@@H]2CO)cc1	5.6	7.7
69	Cc1ccc(S(=O)(=O)Nc2ccc3c(c2)CC(=O)N([C@H](C)CO)C[C@H](C)[C@H](CN(C)C(=O)Nc2ccccc2)O3)cc1	4.6	8.1
70	CN(C)C(=O)c1ccc(-c2ccc([C@@H]3[C@H]4CN(C(=O)C5CC5)CCCCN4[C@H]3CO)cc2)cc1	23.2	0.3
71	O=C(Nc1ccc(F)cc1)N[C@@H]1CC[C@@H](CCn2cc(-c3ccccc3F)nn2)O[C@@H]1CO	-5.2	-6.3
72	CNC[C@@H]1Oc2ncc(C#CC3(O)CCCC3)cc2C(=O)N([C@H](C)CO)C[C@@H]1C	5.8	8.3
